# From PubChem BioAssay
# Bead autofluor – counter-screen for toxin protease inhibitors: compound fluorescence | compound autofluorescence counterscreen, microsphere flow cytometry; hits give high values | fluorescence intensity (concentration not given with the values) | actives 3.1% (n = 360,000) | AID 624483;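 active = at least 3 SD above the mean of all compounds, about 16000 in these data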;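 note: 100 nL of 1 mM stock went into each well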
# RN4220 kill – kills Staphylococcus aureus RN4220; S. aureus RN4220 growth, OD600, 16 h; inhibition, % (test concentration not listed); actives 0.33% (n = 330,000); AID 1259311;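 active = z-score of -3 or lower and OD600 up to 0.18 on both plates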;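 note: plate controls were untreated cells for no effect and reference antibiotic for full effect; stock transfer was 100 nL into about 80 µL; one replicate is shown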
# Sa ugtP lethal – compounds lethal to S. aureus RN4220 ugtP deletion mutant. OD600 growth, 16 h; some inactives read as strong as hits. growth inhibition, % (concentration not given with the values). actives 0.54% (n = 330,000). AID 1259309;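 active = z-score under -3 and OD600 up to 0.15 on both plates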;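 note: plate controls were untreated wells for no effect and antibiotic for full effect; wells of about 80 µL received 100 nL stock; the first replicate is given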
# PrP 5UTR inh – suppresses PrP 5' UTR mRNA reporter expression; cell-based PrP 5' UTR mRNA reporter, plate reader; inhibition, % (test concentration not listed); actives 0.35% (n = 340,000);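 active = every replicate at 50% or more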;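 note: 0 = median of the neutral control wells; tested in H4 reporter cells; numbers are from one replicate; inactives centre near -14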
# BJeLR viability – BJeLR cell viability loss; BJeLR (HRASV12) viability, CellTiter-Glo ATP luminescence, 48 h; reference of the scale not given here; inhibition, % (concentration not given with the values); actives 0.17% (n = 300,000);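 active = replicate mean above 50%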;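 note: 50 nL library stock added to about 25 µL; numbers are from one replicate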
# Mtb hypoxia rep – reduces hypoxia-regulated biosensor signal in M. tuberculosis; M. tuberculosis hypoxia-regulated fluorescent reporter, fluorescence; fluorescence inhibition, % (test concentration not listed); actives 0.1% (n = 300,000); AID 1159583;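 active = 35 to 45% if threefold the growth effect, above 45% if 1.5-fold the growth effect; inactive = the rest, general growth blockers included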;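 note: wells of about 50 µL received 100 nL stock; 0% = vehicle wells and 100% = reference inhibitor wells; whole bacteria with a GFP reporter of the hypoxia response; strong numbers were not always called active; many hits fall short of the cut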
# Mtb hypoxia rep growth – recorded beside Mtb hypoxia rep, whose call it bears; growth inhibition, %; measured here: M. tuberculosis growth (absorbance);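 0% = vehicle and 100% = reference antibiotic; read after six days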
# Numbers without * were called inactive; . = no result given.
SMILES,Bead autofluor,RN4220 kill,Sa ugtP lethal,PrP 5UTR inh,BJeLR viability,Mtb hypoxia rep,Mtb hypoxia rep growth
O=C1CCC(C(=O)OC(C(=O)Nc2ccc([N+](=O)[O-])cc2Br)c2ccccc2)=NN1 (configuration not stated),.,0.5,6,-7,.,2,5
Cc1cc2c(cc1S(=O)(=O)N(C)c1ccccc1)NC(=O)CO2,3961,-1.0,-4,-11,5,-5,0
O=C(CN1C(=O)NC2(CCc3ccccc32)C1=O)c1ccc2c(c1)OCCO2 (configuration not stated),3504,7.2,9,-20,-5,-4,5
COc1ccc(-n2c(C)nc3ccccc3c2=O)c([N+](=O)[O-])c1,3715,5.0,8,-17,0,12,5
Cc1nn(-c2ccccc2)c(C)c1/C=C/C(=O)OCC(=O)Nc1ccc(C(N)=O)cc1,2639,0.8,3,-1,.,6,-6
Cc1cccc(N(C)S(=O)(=O)c2c[nH]c3ccc([N+](=O)[O-])cc23)c1,5154,-9.7,-28,-11,3,-7,8
CCOC(=O)C1CCN(C(=O)COc2ccc(Cl)cc2)CC1,2295,1.0,3,-17,2,.,.
O=C(Nc1ccccc1Cl)NC1(C(=O)NCc2cccnc2)CCCCC1,3979,-2.0,15,-12,3,-7,-5
COc1ccc(C2NC(=O)NC(C)=C2C(=O)OCc2ccc3c(c2)OCO3)cc1OC (configuration not stated),7848,6.1,4,-16,-5,2,7
CC(=O)Nc1ccc(S(=O)(=O)N2CCN(C(=O)c3cccnc3)CC2)cc1,23558*,1.2,2,-21,-6,-8,1
COc1cccc(NC(=O)N2CCC(NC(=O)c3ccco3)CC2)c1,2988,3.1,8,-33,-5,3,-4
Cc1ccc(N=Nc2cc(C)ccc2O)c(C)c1,3905,3.7,28,-34,5,3,8
CC(C)N(C(=O)[C@H]1CC(CC(=O)NCC23CC4CC(CC(C4)C2)C3)C(=O)N2CCc3c([nH]c4ccccc34)[C@]12C)C(C)C (some centres not stated),3033,-2.3,-11,-23,.,0,1
O=C(NCCc1ccccc1)C1CCCN(S(=O)(=O)c2cnc[nH]2)C1 (configuration not stated),5602,5.7,15,-4,-5,.,.
Cc1ccc(NC(=O)N(Cc2nc3ccccc3c(=O)[nH]2)Cc2cccs2)cc1,10897,4.7,-1,-13,-7,1,1
COC(=O)C(Oc1ccc2c(-c3ccc(OC)cc3)cc(=O)oc2c1)c1ccccc1 (configuration not stated),2489,-3.6,14,4,5,-3,-1
CCCCNC(=O)CCNS(=O)(=O)c1ccc(Br)cc1,9229,0.8,0,-5,-2,5,-1
COc1ccc(Cl)cc1NS(=O)(=O)c1cccc(C(=O)N2CC(C)OC(C)C2)c1 (configuration not stated),8168,3.5,-2,-9,.,6,-4
CCOC(=O)CSc1nc2ccc(S(=O)(=O)N3CCOCC3)cc2[nH]1,3121,0.5,-4,-12,0,4,-1
CCn1c(=O)n(CC)c2cc(N3CCCC3)c(NC(=O)c3cccc(OC)c3)cc21,5884,2.7,1,-2,-4,-3,8
O=C(NCCCn1ccnc1)c1ccc2nccnc2c1,4238,4.0,11,0,1,9,9
CC(C)(C)NC(=O)C(Cc1ccccc1)NS(=O)(=O)c1cccc2nsnc12 (configuration not stated),6445,2.1,7,-14,0,13,3
CCn1cc(SCC(N)=O)c2ccccc21,6461,-8.9,4,-16,8,4,6
CCOc1cc(CNC(C)(C)C)ccc1OCC(=O)Nc1cccc(C(F)(F)F)c1,5742,1.3,0,-31,7,7,-11
COc1ccccc1-n1cc(-c2ccc(Br)cc2)[nH]c1=S,3720,2.2,9,-20,0,-1,3
CC1(C)OC(C(O)(c2ccccc2)c2ccccc2)[C@@H](C(O)(c2ccccc2)c2ccccc2)O1 (some centres not stated),3440,.,.,-12,4,.,.
O=C(CSc1nncn1-c1ccccc1)NCc1cccs1,3196,2.0,3,-10,3,-3,9
CC(C)OP(=O)(OC(C)C)C(NC(=O)c1ccc(Br)cc1)c1ccccc1 (configuration not stated),21425*,-2.2,3,-19,6,2,-4
COC(=O)c1ccc(CNC(=O)COC(=O)/C=C/c2ccc(O)c(OC)c2)cc1,4307,-4.6,17,-14,.,7,9
CN(C)c1ccc(S(=O)(=O)NCC(=O)OCC(=O)NC(=O)C2CCCCC2)cc1[N+](=O)[O-],.,7.2,9,2,.,6,0
CC1N(C(=O)N2CCOCC2)CCN1S(=O)(=O)c1ccc(Cl)cc1 (configuration not stated),5841,0.4,5,-8,3,12,4
Cc1noc(C)c1NC(=O)Nc1ccc2c(c1)C(=O)N([C@@H](C)CO)C[C@@H](C)[C@@H](CN(C)Cc1ccc3c(c1)OCO3)O2,4403,2.0,4,-16,.,-14,2
COc1ccc(/C=C/C(=O)c2ccc3c(c2)OCCO3)cc1[N+](=O)[O-],3309,-0.2,2,-21,1,2,-2
CC(=O)NC(c1cc(Cl)c2cccnc2c1O)C1CC1 (configuration not stated),3559,17,36,22,.,4,-12
CCOC(=O)c1c(C)nn(-c2ncccc2NC(=O)CCC(=O)O)c1C,6293,3.5,5,.,-16,-6,-12
CC1(C(=O)OCC(=O)NNC(=O)COc2ccc(Cl)cc2)CC1(Cl)Cl (configuration not stated),5405,1.9,2,-16,7,12,5
Cc1cc(C(=O)COC(=O)c2ccc[nH]c2=O)c(C)n1-c1ccccc1,2381,8.2,5,14,-3,10,7
Cc1ccc(N2CC(C(=O)Nc3ccc(S(=O)(=O)N4CCOCC4)cc3)CC2=O)cc1 (configuration not stated),10738,9.9,7,-13,-3,11,2
CCCCCn1c(CN2CCN(c3cccc(Cl)c3)CC2)nc2c1c(=O)n(C)c(=O)n2C,8145,8.0,-20,-24,-3,10,3
Cc1ccsc1C=NNC(=O)C1C(=O)NCC1c1ccccc1 (configuration not stated),.,2.2,4,.,.,11,3

# Single records (already shown). Order of values: Bead autofluor | RN4220 kill | Sa ugtP lethal | PrP 5UTR inh | BJeLR viability | Mtb hypoxia rep | Mtb hypoxia rep growth
# CCCCCn1c(CN2CCN(c3cccc(Cl)c3)CC2)nc2c1c(=O)n(C)c(=O)n2C is entered as 8145 | 8.0 | -20 | -24 | -3 | 10 | 3
# CCOc1cc(CNC(C)(C)C)ccc1OCC(=O)Nc1cccc(C(F)(F)F)c1 is entered as 5742 | 1.3 | 0 | -31 | 7 | 7 | -11
# Cc1ccsc1C=NNC(=O)C1C(=O)NCC1c1ccccc1 (configuration not stated) is entered as . | 2.2 | 4 | . | . | 11 | 3

# The list goes on.
SMILES,Bead autofluor,RN4220 kill,Sa ugtP lethal,PrP 5UTR inh,BJeLR viability,Mtb hypoxia rep,Mtb hypoxia rep growth
Cc1ccc2cccc(O)c2[n+]1[O-],10161,-0.2,-2,-8,0,-8,5
CCOc1ccccc1N1CC(C(=O)NNC(=O)c2cc(OC)c(OC)c(OC)c2)CC1=O (configuration not stated),9287,4.3,3,-5,.,2,4
C#CCN1c2ccccc2Sc2cccnc21,3828,12,6,-18,2,9,13
C=CCN1C(=O)c2ccc(C(=O)N3CCC(C(=O)OCC)CC3)cc2C1=O,5042,3.1,-1,-31,.,-1,2
O=C1CCCN1CCCNc1ccc(S(=O)(=O)N2CCCCC2)cn1,5819,-0.8,4,-2,1,-3,-14
COC(=O)C1=C(O)/C(=C\c2ccc(CNS(=O)(=O)c3ccccc3)o2)N=C1C,2566,4.5,4,-9,-6,-9,4
Nc1nnc(-c2ccccc2)s1,23348*,7.5,-1,-10,2,13,10
CCOc1ccccc1N(CC(=O)NCC1CCCO1)C(=O)CNS(=O)(=O)c1ccccc1 (configuration not stated),3345,-0.2,-1,-26,-7,1,3
Cc1ccc(C(=O)NC2CCCCNC2=O)cc1 (configuration not stated),5981,1.5,1,-58,6,-5,-14
Cc1ccc2c(c1)cc(C(=O)NCc1ccccc1)n2C,.,4.4,5,-6,25,3,-2
CC(=O)Nc1cccc(NC(=O)CCCC(=O)O)c1,18707*,3.8,2,-10,3,0,0
O=C(COc1ccc(Br)cc1)Nc1ccc(-c2nnc(-c3ccco3)o2)cc1,21839*,0.4,-5,-46,-10,9,-2
CCOC(=O)CNC(=O)c1sc2ncnc(N3CCc4ccccc4C3)c2c1C,19828*,-3.6,-16,12,5,-11,5
CC12CCC(C/C1=N/O)C2(C)CBr (configuration not stated),5463,.,.,-8,8,.,.
O=C(CSc1nnc(-c2cccnc2)n1CCc1ccccc1)N1CCCCC1,9764,1.6,0,-3,-3,4,13
CCN1/C(=C2/SC(=S)N(NC(C)=O)C2=O)Sc2ccc(Cl)cc21,4200,3.8,13,-22,-4,8,2
C#CCOCCOCCOCCNc1nc(N2CCN(C(=O)[C@H](C(C)C)n3cc(CCO)nn3)CC2)nc(N2CCN(C(=O)[C@H](C(C)C)n3cc(CCO)nn3)CC2)n1,3640,.,.,-25,-11,.,.
CC(C)c1nc2c(c(=O)c3ccccc3n2C)c(=O)n1-c1ccc(F)cc1,2586,1.8,0,-7,11,-6,-1
C=C1C2C[C@H](O)C(C)(C)[C@@]2(O)[C@H](O)C[C@]23C[C@@](C)(O)[C@H](CC[C@H]12)[C@H]3O (some centres not stated),3782,.,.,-12,5,.,.
CCOc1ccc(-c2nc3ccccc3c(=O)o2)cc1,3414,7.3,16,-57,-3,16,14
C=CCn1c(=O)c2ccccc2n2c(SCc3nc4ccccc4s3)nnc12,3070,-15,3,-62,-1,1,5

# For convenience, some entries already given.
SMILES,Bead autofluor,RN4220 kill,Sa ugtP lethal,PrP 5UTR inh,BJeLR viability,Mtb hypoxia rep,Mtb hypoxia rep growth
Cc1ccc2cccc(O)c2[n+]1[O-],10161,-0.2,-2,-8,0,-8,5
CCOc1ccccc1N1CC(C(=O)NNC(=O)c2cc(OC)c(OC)c(OC)c2)CC1=O (configuration not stated),9287,4.3,3,-5,.,2,4
C#CCN1c2ccccc2Sc2cccnc21,3828,12,6,-18,2,9,13
C=CCN1C(=O)c2ccc(C(=O)N3CCC(C(=O)OCC)CC3)cc2C1=O,5042,3.1,-1,-31,.,-1,2
O=C1CCCN1CCCNc1ccc(S(=O)(=O)N2CCCCC2)cn1,5819,-0.8,4,-2,1,-3,-14
COC(=O)C1=C(O)/C(=C\c2ccc(CNS(=O)(=O)c3ccccc3)o2)N=C1C,2566,4.5,4,-9,-6,-9,4
Nc1nnc(-c2ccccc2)s1,23348*,7.5,-1,-10,2,13,10
CCOc1ccccc1N(CC(=O)NCC1CCCO1)C(=O)CNS(=O)(=O)c1ccccc1 (configuration not stated),3345,-0.2,-1,-26,-7,1,3
Cc1ccc(C(=O)NC2CCCCNC2=O)cc1 (configuration not stated),5981,1.5,1,-58,6,-5,-14
Cc1ccc2c(c1)cc(C(=O)NCc1ccccc1)n2C,.,4.4,5,-6,25,3,-2
CC(=O)Nc1cccc(NC(=O)CCCC(=O)O)c1,18707*,3.8,2,-10,3,0,0
O=C(COc1ccc(Br)cc1)Nc1ccc(-c2nnc(-c3ccco3)o2)cc1,21839*,0.4,-5,-46,-10,9,-2
CCOC(=O)CNC(=O)c1sc2ncnc(N3CCc4ccccc4C3)c2c1C,19828*,-3.6,-16,12,5,-11,5
CC12CCC(C/C1=N/O)C2(C)CBr (configuration not stated),5463,.,.,-8,8,.,.
O=C(CSc1nnc(-c2cccnc2)n1CCc1ccccc1)N1CCCCC1,9764,1.6,0,-3,-3,4,13
CCN1/C(=C2/SC(=S)N(NC(C)=O)C2=O)Sc2ccc(Cl)cc21,4200,3.8,13,-22,-4,8,2
